High-throughput results deposited in PubChem BioAssay by several laboratories.
CBX7 inh: inhibitors of human CBX7 binding to H3K27me3 peptide. O95931. AlphaScreen His6-CBX7 / biotin-H3K27me3 peptide binding; active compounds read low. normalised signal (fraction of DMSO) (test concentration not listed). 66,000 compounds, 1.1% hits; in the data active means normalised signal below about 0.5;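 further: 100 nL library stock added to about 20 µL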
Target sequence (O95931 whole entry, looked up): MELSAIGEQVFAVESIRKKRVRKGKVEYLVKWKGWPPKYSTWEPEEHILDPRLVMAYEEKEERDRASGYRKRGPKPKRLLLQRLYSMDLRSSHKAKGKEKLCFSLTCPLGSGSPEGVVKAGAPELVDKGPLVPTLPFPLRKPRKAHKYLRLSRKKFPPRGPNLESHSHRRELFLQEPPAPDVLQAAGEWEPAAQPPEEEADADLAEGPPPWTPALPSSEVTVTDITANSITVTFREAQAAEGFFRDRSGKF
CBX7 inh z-score: further read-out of CBX7 inh, marked with its call; z-score; measured here: z-score of CBX7 signal; some inactives read as strong as hits; reference of the scale not given here;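 same signal on another scale; lower means less binding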
* marks the source's active call; other numbers are inactive results; & = joins results of further samples. A portion of the library (hit frequency here may not be typical).

Every second line gives: CBX7 inh	CBX7 inh z-score
> COc1ccc(-c2c(-c3ccc(OC)cc3)n(CCc3ccccc3)c3nc[nH]c(=O)c23)cc1
    0.84	-2.9
> CC1CCCCC1NC(=O)CN1C(=O)CSc2ccc(S(=O)(=O)N3CCCCC3)cc21 (stereo not drawn)
    0.91	-1.7
> CCc1ccccc1NC1c2ccccc2C(=O)N1c1ccc(Cl)cn1 (stereo not drawn)
    0.83	-2.4
> Cc1ccccc1-c1nc(CN2CCCC(C(=O)NCc3ccc(F)cc3)C2)c(C)o1 (stereo not drawn)
    0.99	-0.15
> COc1ccc(-n2c(Cc3cccn3C)nnc2SCC(=O)NCc2ccccc2)cc1
    0.92	-2
> Cc1ccc(C(=O)Nc2sc3c(c2C(=O)N2CCCCCC2)CCC(C)C3)cc1 (stereo not drawn)
    1	0.21
> O=C(COc1ccc(Cl)cc1)Nc1c(-c2cccs2)nc2ccccn12
    1.2	1.8
> CCCN1Cc2cccc(C(=O)Nc3ccc(Br)c(C)c3)c2C1=O
    1	0.22
> COc1ccc(-c2[nH]ncc2-c2ccccc2)c(O)c1
    0.73	-4.2
> COc1ccc(NC(=O)c2ccc3c(c2)c(C)c(C)n3C)c(OC)c1
    0.86	-2.5
> COc1ccc(CCn2c(=O)c3cccnc3n(CC(=O)Nc3c(C)cccc3C)c2=O)cc1OC
    1	0.32
> O=C(c1ccccc1)c1ccc2nc(Cc3cc(Br)ccc3F)c(=O)[nH]c2c1
    0.9	-2.3
> Cc1ccc(OCC(=O)Nc2cccc(-c3nc4ncccc4o3)c2)c(C)c1
    0.8&0.86	-2.7&-2.4
> O=c1cc(N2CCc3ccccc32)[nH]c(=O)n1-c1ccccc1Cl
    0.97	-0.5
> CC(C)NC(=O)c1nnc(Cc2ccc(F)cc2)o1
    0.8	-2.3
> Cc1ccc(NC(=O)Cn2cc(S(=O)(=O)c3ccc(F)cc3)c(=O)c3ccccc32)cc1
    0.84	-2.3
> CCN(C(=O)Cc1c(C(=O)O)n(C)c2ccccc12)c1cc(OC)ccc1OC
    1	0.51
> CCCN1C(=O)C(Cc2nc3ccccc3c(=O)n2C)c2ccccc21 (stereo not drawn)
    1	0.23
> CCOc1ccc(-n2ccnc2SCC(=O)NCc2ccc3c(c2)OCO3)cc1
    0.73	-0.36
> O=C(NCc1ccc(F)cc1)c1cc(-c2cccs2)on1
    1.1	0.12
> CCCC1CCC(c2ccc(-c3nc(-c4ccccn4)no3)cc2)CC1 (stereo not drawn)
    1.1	1.5
> CC(c1ccccc1)n1c(COc2ccc(Cl)cc2Cl)nc2ccccc21 (stereo not drawn)
    0.99	-0.089
> CCCN(CCC)CCCNC(=O)c1cc(=O)[nH]c2ccc(S(=O)(=O)N3CCCCCC3)cc12
    1	0.21
> COc1ccc(OC)c(-c2nc(Nc3ccccc3C)sc2CC(=O)O)c1
    0.93	-1.2
> Cc1c(Cl)cccc1Nc1nnc(C)c(=O)[nH]1
    1.1	2.1
> O=C(CSc1nccn1-c1ccc(Cl)cc1)Nc1ccc(F)cc1F
    0.91	-0.32
> Cc1nc2cc(-c3ccc(Cl)cc3)[nH]n2c(=O)c1Cc1ccccc1
    1.1	1.7
> Cc1ccccc1Oc1cc([N+](=O)[O-])cc2c1C(=O)Nc1cc(Cl)ccc1O2
    0.084*	-17*
> Cn1ccnc1SCC(=O)c1ccc(F)cc1
    1.1	1.9
> COc1ccc(NC(=O)CN(c2ccc(C(C)C)cc2)S(=O)(=O)c2c(C)nn(C)c2C)cc1
    0.97	-0.41

Rewritten as labelled records: 2 of the compounds above.
COc1ccc(NC(=O)CN(c2ccc(C(C)C)cc2)S(=O)(=O)c2c(C)nn(C)c2C)cc1
  CBX7 inh = 0.97
  CBX7 inh z-score = -0.41

CC1CCCCC1NC(=O)CN1C(=O)CSc2ccc(S(=O)(=O)N3CCCCC3)cc21 (stereo not drawn)
  CBX7 inh = 0.91
  CBX7 inh z-score = -1.7

Additional compounds.
Every second line gives: CBX7 inh	CBX7 inh z-score
> C=CCn1c(=O)c(C(=O)NC(C)c2ccccc2)c(O)c2ccccc21 (stereo not drawn)
    1.4	2.3
> CCOC(=O)c1c(CN)n(C)c2ccc(OC)c(S(=O)(=O)c3ccccc3)c12
    1.2	1.6
> CCCn1c(C2CC(=O)N(c3ccc(C)c(C)c3)C2)nc2ccccc21 (stereo not drawn)
    0.92	-1.7
> Cc1oc(-c2ccccc2F)nc1CN1CCC(C(=O)O)CC1
    1	1.7
> O=C(NCCc1ccncc1)Nc1cccc(Cl)c1
    0.99	-0.13
> COc1ccc(N2CCC(CNC(=O)Nc3ccc(Cl)c(Cl)c3)C2)cc1 (stereo not drawn)
    0.76	-9.5
> CC1CCC(NC(=O)c2ccc3c(c2)N(Cc2c(F)cccc2Cl)C(=O)CS3)CC1 (stereo not drawn)
    0.99	-0.075
> Cn1c(=N)n(CC(O)COc2ccc(Cl)cc2Cl)c2ccccc21 (stereo not drawn)
    1	0.0041
> CCCCC(=O)Nc1c(-c2ccccc2)nc2ccccn12
    1	0.47
> CCOc1ccc(N(CC(=O)OC)S(=O)(=O)c2ccc3c(c2)n(C)c(=O)c(=O)n3C)cc1
    1.1	0.79
> COc1ccccc1CNC(=O)C1CCCN(S(=O)(=O)c2cccc3cccnc23)C1 (stereo not drawn)
    0.94	-0.081
> Cc1cccc(NC(=O)C(C)N2C(=O)c3ccccc3C2=O)c1C (stereo not drawn)
    1.2	1.7
> CCOC(=O)N1CCN(c2c(N3CCC(C(N)=O)CC3)c(=O)c2=O)CC1
    1	0.011
> O=C1CC(NCc2ccncc2)C(=O)N1c1ccccc1 (stereo not drawn)
    1.1&0.94	2.2&-1.4
> COc1cc2c(C(=O)N(C)c3ccc(Cl)cc3)cn(CC(C)C)c(=O)c2cc1OC
    1	0.39
> NS(=O)(=O)c1ccc(CCNC(=O)Cn2cnc3sc4c(c3c2=O)CCCC4)cc1
    1	0.47
> Cc1cc2nc(-c3ccc(NC(=O)c4ccccc4Cl)cc3)oc2cc1C
    1.3	1.4
> O=C(Nc1ccc2nc(-c3ccccc3)oc2c1)C1CCCCC1
    0.98	-0.45
> Cc1ccc(NC(=O)CSc2nccn2-c2ccccc2)cc1
    0.81	-4.2
> Cc1nc2c(-c3ccccc3)c(C)nn2c(C)c1CCC(=O)NCc1ccccn1
    1.1	1.1
> COc1ccc(CNc2oc(-c3ccccc3)nc2C#N)cc1
    1.1	0.21
> CC1CCC(NC(=O)CN2C(=O)CC(C)(C)Sc3ccccc32)CC1 (stereo not drawn)
    0.96	-1.2
> Cc1cccc2nc(-c3ccc(N4CCOCC4)cc3)c(Nc3ccc4c(c3)OCCO4)n12
    0.73	-4.4
> Cc1onc(-c2ccccc2)c1C(=O)Nc1ccc(S(=O)(=O)Nc2nccs2)cc1
    0.92	-1.2
> COc1cc2c(c(OC)c1)C(c1ccc(C(C)C)cc1)CC(=O)N2 (stereo not drawn)
    1.1	0.81
> O=C(Nc1ccccc1-c1nc2ccccc2[nH]1)c1ccc2c(c1)OCCO2
    1.3	0.88
> Cc1ccc(NC(=O)CN(C)S(=O)(=O)c2ccc3c(c2)CCC(=O)N3)c(C)c1
    1	0.44
> COc1cc(OC)cc(C(=O)Nc2ccc3oc(-c4ccc(Cl)cc4)nc3c2)c1
    1	2.2
> CCOC(=O)c1sc2nc(C)n(CC(=O)Nc3ccc(Oc4ccccc4)cc3)c(=O)c2c1C
    1	0.69
> COc1ccc(CCNC(=O)CSc2nc3ccccc3[nH]2)cc1OC
    1.1	0.76

Another view of some results above.
mol: CCOc1ccc(N(CC(=O)OC)S(=O)(=O)c2ccc3c(c2)n(C)c(=O)c(=O)n3C)cc1
- CBX7 inh = 1.1
- CBX7 inh z-score = 0.79
mol: COc1ccccc1CNC(=O)C1CCCN(S(=O)(=O)c2cccc3cccnc23)C1 (stereo not drawn)
- CBX7 inh = 0.94
- CBX7 inh z-score = -0.081
mol: Cc1cccc(NC(=O)C(C)N2C(=O)c3ccccc3C2=O)c1C (stereo not drawn)
- CBX7 inh = 1.2
- CBX7 inh z-score = 1.7
mol: CCOC(=O)N1CCN(c2c(N3CCC(C(N)=O)CC3)c(=O)c2=O)CC1
- CBX7 inh = 1
- CBX7 inh z-score = 0.011

(list continues)
Every second line gives: CBX7 inh	CBX7 inh z-score
> CCOC(=O)N1CCC(Nc2c(NCCN3CCCCCC3)c(=O)c2=O)CC1
    1.2	1.9
> CCc1nc(N2CCCC2)c(C#N)c2c1COC(C)(C)C2
    0.88	-1.3
> Brc1ccc2nc(N3CCCCC3)nc(-c3ccccc3)c2c1
    1.2	0.84
> COc1ccc(Cl)cc1NC(=O)Cn1nc(Cc2cccnc2)c2ccccc2c1=O
    1.1	2.6
> CCC(=O)N1CCc2cc(S(=O)(=O)NCCC(=O)Nc3ccc(N(CC)CC)cc3C)ccc21
    0.93	-2.5
> Cc1cc(N2C(=O)c3ccc(C(=O)N4CCCC(C)C4)cc3C2=O)no1 (stereo not drawn)
    0.98	-0.62
> COc1ccc(Nc2nc(-c3ccccc3F)nc3ccccc23)c(OC)c1
    1.4	11
> CCN1CCN(c2cc(C)c3cc(NC(=O)c4ccccc4F)ccc3n2)CC1
    1	0.1
> Cc1ccc(C)c(CN2C(=O)c3ccccc3S(=O)c3ccc(C(=O)N4CCCCC4)cc32)c1 (stereo not drawn)
    0.93	-0.52
> CCC(=O)N1CCc2cc(S(=O)(=O)NCCCN3CCN(c4ccc(OC)cc4)CC3)ccc21
    0.94	-1.1
> CCCCNC(=O)CCC(=O)Nc1ccc2nc(N3CC(C)CC(C)C3)cc(C)c2c1 (stereo not drawn)
    1.1	3.7
> CCOc1ccccc1NC(=O)c1c(NC(=O)c2cccs2)sc2c1CCC2
    1.2	7
> COc1ccc(Nc2nc(-c3ccc(Br)cc3)cs2)cc1
    0.9	-1.6
> COc1ccccc1-c1cc(C(F)(F)F)nc(S(=O)(=O)CCCC(=O)N2CCCCC2C)n1 (stereo not drawn)
    0.96	-0.36
> Cc1ccc(Cc2c(C)nc3c(C(=O)N4CCN(c5ccc(F)cc5)CC4)cnn3c2C)cc1
    0.85	-4.2
> O=C(c1cccc(C#Cc2ccccc2)c1)N1CCN(c2ccccc2F)CC1
    0.86	-1.5
> COc1ccc(NC(=O)CN(c2ccc(OC)cc2)S(=O)(=O)c2cccnc2)cc1
    1.1	1.4
> COc1ccc(-c2c(C)nn3c(N4CCC(C(=O)NCC5CCCO5)CC4)cc(C)nc23)cc1OC (stereo not drawn)
    1	0.00065
> Cc1c(C(=O)NC2CCCCCCC2)oc2ccc(S(=O)(=O)N3CCCCCC3)cc12
    0.96	-0.73
> CCCCCCCNC(=O)c1c[nH]c2ccc(S(=O)(=O)N(C)c3ccc(C(C)C)cc3)cc2c1=O
    1.2	1.6
> CCOc1ccc(-n2cc(-c3ccccc3)c3c(NCC4CCCO4)ncnc32)cc1 (stereo not drawn)
    0.88	-3.4
> CC1CCCC(NC(=O)C2CCC(CNS(=O)(=O)c3cccc4cccnc34)CC2)C1C (stereo not drawn)
    1	-0.00074
> Cc1ccc(-c2nn(C)c(=O)c3ccccc23)cc1S(=O)(=O)N1CCC(Cc2ccccc2)CC1
    0.98	-0.18
> O=C(O)c1nccnc1C(=O)Nc1cccc(O)c1
    1	0.37
> COc1ccc(-c2nc(CSCC(=O)NCc3ccc(F)cc3)c(C)o2)cc1
    0.95	-1.3
> COc1ccc(Nc2ncc(C(=O)Nc3cc(C)ccc3OC)c3ccccc23)cc1
    1.1	0.82
> Cc1cc(C)cc(NC(=O)C2CCN(S(=O)(=O)c3c(C)noc3/C=C/c3cccs3)CC2)c1
    1	-0.014
> CCCCNC(=O)c1cc(=O)[nH]c2ccc(S(=O)(=O)N3CCCCC3)cc12
    0.94	-0.68
> COc1ccccc1C(=O)Nc1ccccc1-c1nc2ccccc2s1
    1.2	5.5
> Cc1ccc(-c2noc(-c3cc(-c4ccc(F)cc4)nc4ccccc34)n2)cc1
    1.2	0.17
> CCOC(=O)c1ccc2c(c1)N(Cc1ccccc1)C(=O)c1ccccc1S2
    1	0.7
> CCn1cc(C(=O)N2CCN(c3ccccn3)CC2)c(=O)c2ccc(C)nc21
    1	0.37
> CCOc1ccc(Nc2ccc3nnc(-c4ccc(Br)cc4)n3n2)cc1
    1.1	1.2
> Cc1cc(C)cc(NC(=O)CC2Oc3ccc(C)cc3NC2=O)c1 (stereo not drawn)
    0.98	-0.66
> CCCCN(CC)S(=O)(=O)c1ccc2c(c1)CCN2C(=O)C1CCC1
    1	1.1
> CCCCN(C)CCNC(=O)CN1N=C(c2ccccc2)CCC1=O
    1.1	1.2
> CN(C(=O)Cn1ncc2c1-c1ccccc1OC2)c1cccc(C(F)(F)F)c1
    0.92	-2.2
> CN1CCN(c2nc(-c3ccccc3)c(C#N)c(=O)[nH]2)CC1
    1	1.9
> CCN1C(=O)c2ccccc2S(=O)(=O)c2ccc(C(=O)N3CCN(C)CC3)cc21
    1	1
> O=C(COc1ccccc1)Nc1cccc(-c2nnc(-c3ccccc3)o2)c1
    0.81	-2.1
> COCCn1c(=O)[nH]c2cc(C(=O)NCCCN3CCOCC3)ccc2c1=O
    0.97	-0.67
> COc1ccc2nc(SCc3ccccc3)nc(C)c2c1
    1.5	13
> CCn1c(C(=O)NCc2ccc(Cl)cc2)cc2sccc21
    0.9	-1.7
> CC(NC(=O)c1ccc(F)cc1)c1nc2ccccc2[nH]1 (stereo not drawn)
    1.5	3.3
